# HPGD block: blocks human HPGD enzyme activity; P15428; purified HPGD, NADH fluorescence kinetic, PGE2 substrate; Potency, µM, for inactives: top-dose activity change, negative = inhibition, actives largely listed as inhibitors; 150,000 compounds, 4.3% hits; AID 894; active = well fitted inhibition curve with a large enough effect (not every such curve was filed as active); inconclusive = small, poorly fitted or top-dose-only effect, or another doubt; inactive = no such curve, though single readings can be large or run the other way;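 further: top concentration of the series not given in the record; plate controls included wells without enzyme; inactives centre near -10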
# Target sequence (P15428 whole entry, looked up): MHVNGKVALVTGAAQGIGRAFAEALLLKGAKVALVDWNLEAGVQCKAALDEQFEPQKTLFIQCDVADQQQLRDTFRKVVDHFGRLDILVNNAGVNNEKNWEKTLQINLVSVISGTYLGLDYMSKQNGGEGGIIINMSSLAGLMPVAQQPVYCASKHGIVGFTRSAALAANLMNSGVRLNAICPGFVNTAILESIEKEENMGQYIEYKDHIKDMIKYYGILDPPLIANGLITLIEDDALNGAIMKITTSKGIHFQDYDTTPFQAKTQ
#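 NADH formation kinetics: reaction with 30 uM PGE2 and 1 mM NAD+ (final), 20 nM enzyme, Tris-HCl pH 8 with Tween 20, after 15 min compound preincubation at room temperature. Fluorescence change, last versus first of five reads.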
# The depositor's hits bear a star; ? = inconclusive; & = joins results of further samples. On the % scale 0 is the no-effect control and ±100 the full control effect; potency means the concentration at half of the fitted maximal effect. Not all compounds are listed; the hit share may differ from the screen's.
SMILES,HPGD block
Cc1nnc(N(Cc2ccco2)C(=O)c2ccc(C#N)cc2)s1,-17%
Cc1ccc(C(=O)Nc2nc(COc3ccccc3)cs2)s1,-10%
COc1ccc(-c2csc(N3CCOCC3)n2)cc1OC,-1%
CCOc1ccc2nc(NC(=O)CSc3nc4c(c(=O)n(C)c(=O)n4C)n3CC)sc2c1,-5%
Cc1cccc(C#Cc2ccccc2)n1,?
CC(=O)NC(Nc1nc2c(s1)CCCC2)(C(F)(F)F)C(F)(F)F,-6%
C=CCNC(=S)N/N=C(\C)c1cc(OC)c(OC)c(OC)c1,-9%
CCN(CC)CCN1C(=O)C(O)=C(C(=O)c2cc3ccccc3o2)C1c1cccnc1 (stereo not drawn),-7%
Cc1ccc(OCCn2ccc(=O)[nH]c2=O)cc1C,-12%
CCN(Cc1ccccc1)C(c1cccc(C#N)c1)c1nnnn1C(C)(C)C (stereo not drawn),-26%
COC(=O)C1=C(C(=O)OC)[C@@H]2N(C)c3ccccc3[C@@]23C[C@@H](C(=O)OC)N(C(=O)c2cc(C)oc2C)C3=N1,-3%
CCOC(=O)N1CCN(C(=O)c2ccc(N3C(=O)CCC3=O)cc2)CC1,-2%
Cc1ccc(C)c(NC(=S)NC2CC3CCC(C2)N3Cc2ccco2)c1 (stereo not drawn),-14%
COc1ccc(/C=C/C(=O)Nc2cccc(C(C)=O)c2)cc1,-18%
CCN(CC)c1ccc(NC(=O)COC(=O)c2ccc3ccccc3n2)cc1,-27%
Cc1ccccc1NS(=O)(=O)c1ccc2[nH]cc(C(=O)N(C)Cc3ccco3)c(=O)c2c1,-23%
CCn1c(SCC(=O)NNC(=S)Nc2ccc(C)cc2)nnc1-c1ccc(Cl)cc1,-7%
Cc1cccc(CN(C)CCc2ccccn2)c1,-2%
CS(=O)(=O)N1CCC(C(=O)Nc2ccccc2F)CC1,2%
c1cncc(Nc2nc(-c3ccncc3)cs2)c1,-15%
O=C1c2ccccc2C2(c3ccccc3)NCCN12 (stereo not drawn),-2%
O=C(c1cnn(C(=O)COc2ccc(Cl)cc2)c1)c1ccccc1O,-17%
CCn1c(=O)c(C(=O)Nc2ccsc2C(=O)OC)c(O)c2ccccc21,?
O=C(CC(=O)c1ccccc1)Nc1cccnc1,-15%
O=C(OCc1nc2ccc(Cl)cc2n1CCO)c1ccccc1,-9%

# Next section:
SMILES,HPGD block
CCc1ccc(C(C)NC(=O)Cn2cnc3c(=O)n(C)c(=O)n(C)c32)cc1 (stereo not drawn),-11%
CCCC(=O)Nc1ccc(Cl)c(NC(=O)c2cccnc2Cl)c1,-16%
CC(=O)N1N=C(c2c(-c3ccccc3)c3cc(C)ccc3[nH]c2=O)CC1c1ccco1 (stereo not drawn),-21%
COC(=O)c1sc(N)c(C(=O)OC)c1COC(=O)CNS(=O)(=O)c1ccc(C)c(C)c1,?
CCCn1c(C)cc(/C=C(\C#N)C(=O)OCC(=O)Nc2cc(OC)c(OC)c(OC)c2)c1C,-7%
COC(=O)C(CCSC)NC(=O)C12CC3CC(CC(C3)C1)C2 (stereo not drawn),-12%
CC[C@@H]1C(c2cccc(C)c2)=NN(c2ccccc2)[C@H]1C(=O)N1CCOC1=O,?
O=C(CN1C(=O)NC2(CCCc3ccccc32)C1=O)NCc1ccco1 (stereo not drawn),-8%
S=C(NCc1cccs1)Nc1cccc(Cl)c1,13µM*
CCOC(=O)N1CCN(C(=O)c2cc(-c3ccc(F)cc3)[nH]c2C)CC1,-11%
CCOC(=O)c1ccc(Nc2ncnc3ccc(C)cc23)cc1,?
O=C(O)C/C=C\CC(=O)O,-14%
Cc1cc(/C=C2/SC(=S)N(c3ccc([N+](=O)[O-])cc3)C2=O)c(C)n1-c1cccnc1,?
CCOCC(=O)Nc1nnc(COC)s1,-16%
O=C(COC(=O)CSc1ccc2ccccc2c1)NC1CCCC1,-20%
CC1(C)CC(C#N)(N2CCOCC2)CCO1 (stereo not drawn),-2%
CCc1cc2c(CN3CCN(CC)CC3)cc(=O)oc2cc1O,?
CC1(C)CC(NC(=O)C23CCC(C)(/C(=N/O)C2)C3(C)C)CC(C)(C)N1 (stereo not drawn),-9%
O=C(c1ccc2nc(N3CCOCC3)sc2c1)N1CCN(C(=O)c2ccco2)CC1,-3%
O=C(NCc1ccccn1)c1ccc2nc(-c3ccco3)c(-c3ccco3)nc2c1,14µM*
O=C(O)C1CC(=O)N(Cc2cccs2)C1 (stereo not drawn),-11%
CCc1cccc2c(C=C(C#N)C#N)cn(CC(=O)N3CCCCC3)c12,0%
O=C(CSc1nnc(SCc2cccc3ccccc23)s1)c1ccc2c(c1)OCO2,?
Cc1[nH]c2ccccc2c1C1=CN2CCS(=O)(=O)N=C2S1,0%
CCN1CCN(Cc2ccc(OCc3ccccc3)cc2)CC1,-11%

# Additional structures follow:
SMILES,HPGD block
CCOC(=O)/C(=N\O)C1=NC(C)(C)Cc2ccccc21,-11%
CCOCC(O)CSCc1ccc(Cl)cc1 (stereo not drawn),-14%
Cc1nn(Cc2ccc(Cl)cc2)c(C)c1NC(=O)c1cc(-c2ccc3c(c2)OCO3)on1,-21%
CCC(C)N1C(=O)/C(=C/c2c(NCCCOC(C)C)nc3c(C)cccn3c2=O)SC1=S (stereo not drawn),-10%
COc1ccc(NC(=O)C(C/C=C(/C)Cl)C(C)=O)cc1 (stereo not drawn),1%
O=C1CC(=O)N(Cc2ccco2)C(=S)N1,?
O=C(CCCc1nc2ccccc2s1)N1CCN(c2ccccc2)CC1,?
CCCCOc1ccc(C(C)NC(=O)CCS(=O)(=O)Cc2ccc(Cl)cc2)cc1 (stereo not drawn),4%
COc1cc(Cl)c(C)cc1NC(=O)CSc1nc2ccccc2o1,-6%
Cc1ccc(SCCC(=O)NC(C(C)C)C(C)C)cc1,7.9µM*
Cc1c(NC(=O)c2cnn3c2NC(c2ccc(Br)cc2)CC3C(F)(F)F)c(=O)n(-c2ccccc2)n1C (stereo not drawn),-4%
CCn1c(CN2CCN(C(=O)c3ccco3)CC2)nc2c1c(=O)n(C)c(=O)n2C,-1%
COc1ccc(Nc2nc(-c3cc4cccc(OC)c4oc3=O)cs2)cc1,-12%
O=C(NCC(=O)N1CCCCC1)c1ccc(Cl)cc1Cl,-28%
COc1ccc(N2C(=O)CSC23C(=O)N2c4c(cccc43)C(C)=CC2(C)C)cc1 (stereo not drawn),-8%
COc1ccc(C2/C(=C(/O)c3ccccc3)C(=O)C(=O)N2CCN2CCOCC2)c(OC)c1 (stereo not drawn),-13%
CCN(CCCCCN(C)C)Cc1cc2ccccc2o1,-7%
Fc1cccc(Cl)c1Cn1nnc(-c2ccc3c(c2)OCO3)n1,-24%
CCN1CCCC1CNC(=O)c1cc2c(-c3ccc(Cl)cc3)nn(C)c2s1 (stereo not drawn),?
NC(=O)c1oc2ccccc2c1NC(=O)c1nc2ccccc2s1,-29%
O=C(N/N=C/c1cccnc1)C1CCCN(S(=O)(=O)c2ccccc2)C1 (stereo not drawn),-3%
Cc1ccsc1C(=O)OCC(=O)c1cc2ccccc2o1,-27%
Cc1ccc(OCCn2c(CCCO)nc3ccccc32)cc1,-9%
CCN(CC)CCCN1C=C2C(=O)C(C)(OC(=O)C3CCCC3)C(=O)C=C2C=C1c1ccsc1 (stereo not drawn),-7%
NNC(=O)c1ccc(Cn2cc(Cl)cn2)cc1,-4%

# A portion from the list above, for reference:
SMILES,HPGD block
O=C1CC(=O)N(Cc2ccco2)C(=S)N1,?
O=C(CCCc1nc2ccccc2s1)N1CCN(c2ccccc2)CC1,?
CCCCOc1ccc(C(C)NC(=O)CCS(=O)(=O)Cc2ccc(Cl)cc2)cc1 (stereo not drawn),4%
COc1cc(Cl)c(C)cc1NC(=O)CSc1nc2ccccc2o1,-6%
Cc1ccc(SCCC(=O)NC(C(C)C)C(C)C)cc1,7.9µM*
Cc1c(NC(=O)c2cnn3c2NC(c2ccc(Br)cc2)CC3C(F)(F)F)c(=O)n(-c2ccccc2)n1C (stereo not drawn),-4%
CCn1c(CN2CCN(C(=O)c3ccco3)CC2)nc2c1c(=O)n(C)c(=O)n2C,-1%
COc1ccc(Nc2nc(-c3cc4cccc(OC)c4oc3=O)cs2)cc1,-12%
O=C(NCC(=O)N1CCCCC1)c1ccc(Cl)cc1Cl,-28%
COc1ccc(N2C(=O)CSC23C(=O)N2c4c(cccc43)C(C)=CC2(C)C)cc1 (stereo not drawn),-8%
COc1ccc(C2/C(=C(/O)c3ccccc3)C(=O)C(=O)N2CCN2CCOCC2)c(OC)c1 (stereo not drawn),-13%
CCN(CCCCCN(C)C)Cc1cc2ccccc2o1,-7%
Fc1cccc(Cl)c1Cn1nnc(-c2ccc3c(c2)OCO3)n1,-24%
CCN1CCCC1CNC(=O)c1cc2c(-c3ccc(Cl)cc3)nn(C)c2s1 (stereo not drawn),?
NC(=O)c1oc2ccccc2c1NC(=O)c1nc2ccccc2s1,-29%
O=C(N/N=C/c1cccnc1)C1CCCN(S(=O)(=O)c2ccccc2)C1 (stereo not drawn),-3%
Cc1ccsc1C(=O)OCC(=O)c1cc2ccccc2o1,-27%
Cc1ccc(OCCn2c(CCCO)nc3ccccc32)cc1,-9%
CCN(CC)CCCN1C=C2C(=O)C(C)(OC(=O)C3CCCC3)C(=O)C=C2C=C1c1ccsc1 (stereo not drawn),-7%
NNC(=O)c1ccc(Cn2cc(Cl)cn2)cc1,-4%

# Carrying on.
SMILES,HPGD block
c1ccc(Cc2nc3ccccc3n2Cc2ccccc2)cc1,-9%
O=C(CSc1n[nH]c(-c2ccncc2)n1)c1ccccc1,?
C=CCC(C#Cc1ccccc1)N(C)C (stereo not drawn),-7%
COc1ccc(CCNC(=O)C(=O)NCCOc2ccccc2)cc1OC,-15%
CCc1ccc2c(c1)/C(=C/C(=O)c1cccs1)C(=O)N2,-14%
O=C(Nc1ccccc1)O/N=C1\CCCCC1c1ccc([N+](=O)[O-])cc1[N+](=O)[O-] (stereo not drawn),-12%
COc1ccc(NC(=O)CN(C)S(=O)(=O)c2cccc3cccnc23)cc1,-21%
FC(F)(F)c1ccc2nnc(-c3c(Cl)cccc3Cl)n2c1,-26%
Clc1ccc(C(c2ccccc2Cl)C(Cl)Cl)cc1 (stereo not drawn),-17%&-17%&-5%
NC(=O)CSc1nc2ccccc2n1-c1ccccc1,-1%
COc1ccc(/C=C/C(=O)c2ccccc2)cc1COc1ccc(F)cc1,-15%
CCOC(=O)C1C(=O)C=C(c2ccc(Br)cc2)CC1c1ccco1 (stereo not drawn),-14%
COc1ccccc1CN1CC2(CCN(C(=O)c3ccncc3)CC2)C1,-10%
O=C(COc1ccccc1)NCc1nnc(SCC(=O)Nc2nccs2)n1-c1ccccc1,0%
CCN1/C(=C2\C(=O)N(C)C(=S)N2C)C=Cc2ccccc21,-4%
COc1ccccc1CNC(=S)NCCc1ccccc1,-12%
c1cncc(-c2nnc3n2N=C(c2cccs2)CS3)c1,-12%
COc1ccc(-c2nc3c(c4c2C[C@H](c2ccccc2)OC4)CN(S(=O)(=O)c2ccc(Cl)c4nonc24)CC3)c(C)c1,-3%
CC1=NN(c2ccc(Cl)c(C(=O)O)c2)C(=O)C1,-8%
Cn1cccc1C(=O)N1CCC2(CC1)CCN(c1ccccc1)CC2,-7%
CN1C(=O)CC(n2c(CO)nc3ccccc32)C1=O (stereo not drawn),-10%
CCC(=O)N1c2ccc(S(=O)(=O)CCC(=O)NCCC3=CCCCC3)cc2CC1C (stereo not drawn),-2%
CCn1cc(CNC(=O)/C=C/c2ccc([N+](=O)[O-])cc2)c(C)n1,-9%
CC(=O)N1CC=CC1(CC(C)C)C(=O)NCCN1CCOCC1 (stereo not drawn),-15%
O=C(COC(=O)CNC(=O)C12CC3CC(CC(C3)C1)C2)Nc1ccccc1,-6%

# New compounds follow:
SMILES,HPGD block
O=c1c2cnn(-c3ccccc3)c2nnn1Cc1ccccn1,-17%
CCOC(=O)c1sc(NC(=O)C(OC(C)=O)c2ccccc2)nc1C (stereo not drawn),-6%
COc1ccc(OC)c(/C(O)=C/C(=O)C(=O)Nc2cc(C)ccc2OC)c1,-6%
COc1ccc2c(c1)N(C[C@@H](C)CN(C)C)c1ccccc1S2,-3%
O=C1C(Cl)=C(NCC2CCCO2)C(=O)N1CCc1ccccc1 (stereo not drawn),-16%
Cn1c2c(c(=O)n(C)c1=O)CN(CCCN1CCOCC1)CN2,-1%
COc1ccc(OC(C)C(=O)NCc2cccnc2)cc1 (stereo not drawn),-8%
Cc1ccc(C(=O)N2CCN(c3ccc(NC(=O)c4ccc(Br)o4)cc3)CC2)cc1,-27%
COc1ccc(NC(=O)COc2ccccc2)c(OC)c1,-18%
O=C(CC(C(=O)O)N1CCOCC1)Nc1ccc(Cl)cc1 (stereo not drawn),-10%
COc1ccc(C/C(C)=N/NC(=O)c2ccncc2)cc1,-13%
CC1=CN2C(=N)/C(=C/c3ccc(C)o3)C(=O)N=C2S1,-16%
Cn1c(C(=O)N(Cc2ccccc2)Cc2cccs2)cc2sccc21,0%
Cc1ccc(S(=O)(=O)N2CCN(CC(=O)NC3CCCc4ccccc43)CC2)c(C)c1 (stereo not drawn),-8%
COc1ccc(NC(=O)Nc2nnc(C(C)C)s2)cc1,-12%
CCc1nc(SCC(=O)Nc2cc(C)on2)c2c(=O)n(C)c(=O)n(C)c2n1,-10%
Cc1onc(-c2ccccc2Cl)c1C(=O)Nc1ccc(F)c(F)c1,-3%
O=C(Cn1ncc2c(=O)oc3ccccc3c21)N1CCc2ccccc2C1,-2%
CCOC(=O)C1CCN(c2c(NCc3ccc(C(=O)NC(C)CC)cc3)c(=O)c2=O)CC1 (stereo not drawn),5µM*
CCOCCOc1nc2c(c(=O)n(C)c(=O)n2C)n1Cc1ccc(C)cc1,-10%
NC(=S)NNc1cc(Cl)cc(Cl)c1,-14%
CCCSc1ncc(Cl)c(C(=O)Nc2ccc(S(=O)(=O)N3CC(C)OC(C)C3)cc2)n1 (stereo not drawn),-22%
COc1ccc(NC(=O)CN2CCN(c3ccc(Cl)cc3)CC2)c(OC)c1,-15%
CCCn1nc(C(=O)NCCc2ccc(S(N)(=O)=O)cc2)c2ccccc2c1=O,-7%

# Screening data: PubChem, National Center for Advancing Translational Sciences (NCATS)
